PV pol inh = poliovirus RNA polymerase inhibition; AID 588519; 0.66% of 150,000 active; % elongation, % (compound at 16.7 µg/mL); poliovirus polymerase elongation, fluorescence polarization; stronger effect = lower value; P03300; in the data active means % elongation below about 90%; further: some results filed as inactive read as strong as hits
Mtb MenB inh = inhibitors of Mycobacterium tuberculosis MenB enzyme; P9WNP5; AID 540299; MenB enzyme assay, absorbance read-out; some hits fall short of the stated cut; inhibition, %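 (about 12 µg/mL by stock and volumes)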; 0.43% of 100,000 active;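 active means mean of two replicates above 30%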;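 further: 0% = no compound and 100% = wells with inactive enzyme; the first replicate is given; strong numbers were not always called active; inactives centre near -10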
Target sequence (P9WNP5 whole entry, looked up): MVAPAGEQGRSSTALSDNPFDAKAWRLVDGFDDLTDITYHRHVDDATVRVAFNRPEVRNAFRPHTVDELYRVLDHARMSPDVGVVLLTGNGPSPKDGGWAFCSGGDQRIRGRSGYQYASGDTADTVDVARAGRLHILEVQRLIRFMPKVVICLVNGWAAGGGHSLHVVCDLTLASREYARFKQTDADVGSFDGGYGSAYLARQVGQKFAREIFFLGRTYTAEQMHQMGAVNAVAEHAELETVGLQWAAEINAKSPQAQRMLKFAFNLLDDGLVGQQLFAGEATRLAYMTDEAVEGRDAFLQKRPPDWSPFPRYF
MbtI inh = inhibitors of Mycobacterium tuberculosis siderophore enzyme MbtI | 0.89% of 100,000 active | inhibition, %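 (about 17 µg/mL by stock and volumes)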 | purified MbtI enzyme, fluorescence intensity read-out;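 active means above 50% in both replicates, above 80% if mildly self-fluorescent; inactive means the rest, strongly fluorescent compounds included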;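 further: 0% = mean of negative and 100% = mean of positive controls; one replicate is shown; some compounds called inactive have numbers as strong as hits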
Target sequence (P9WFX0 whole entry, looked up): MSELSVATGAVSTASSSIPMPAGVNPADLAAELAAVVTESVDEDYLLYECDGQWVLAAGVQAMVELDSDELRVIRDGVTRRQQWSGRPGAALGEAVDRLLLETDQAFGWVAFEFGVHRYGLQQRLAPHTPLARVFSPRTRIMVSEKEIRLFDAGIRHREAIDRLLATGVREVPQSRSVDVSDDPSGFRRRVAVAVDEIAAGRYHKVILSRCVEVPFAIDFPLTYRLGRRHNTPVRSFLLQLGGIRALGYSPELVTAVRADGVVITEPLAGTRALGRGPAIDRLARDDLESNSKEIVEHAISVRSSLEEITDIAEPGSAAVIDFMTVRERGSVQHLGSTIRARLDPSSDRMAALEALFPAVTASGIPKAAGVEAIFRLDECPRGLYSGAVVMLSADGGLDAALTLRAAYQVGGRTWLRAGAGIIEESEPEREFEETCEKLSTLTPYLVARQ
PV pol inh intensity = recorded beside PV pol inh, whose call it bears; % elongation; measured here: total intensity read-out; formula for this scale not given here;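 total fluorescence in place of polarization; lower means less elongation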
Numbers without * were called inactive; . = not tested or not shown; & = joins results of further samples.

SMILES	PV pol inh	PV pol inh intensity	Mtb MenB inh	MbtI inh
CCOC(=O)Cn1nnnc1C(C(C)C)N(Cc1ccc(F)cc1)Cc1cc2cc3c(cc2[nH]c1=O)OCO3 (configuration not stated)	99.0	104.0	34.1	88.4
CCCN=CC1=C(O)CC(c2ccccc2)CC1=O (configuration not stated)	102.0	101.0	-2.7	1.3
COC(=O)CCNc1ccc(OC)cc1	100.0	103.0	-19.5	-7.3
CCCCCCCCCCCCCCCC(=O)OC/C=C(C)/C=C/C=C(C)/C=C/C1=C(C)CCCC1(C)C	99.0	103.0	6.3	-10.2
COC(=O)CCCc1cccs1	102.0	107.0	-5.2	7.3
O=C(Nc1cccc(C(=O)NC2CCCC2)c1)C1=CSCCO1	99.0	102.0	-1.0	5.5
O=C(Nc1ccccn1)c1cccc(C(=O)Nc2ccccn2)c1	106.0	107.0	-6.6	.
CC1CCCC(NC(=O)COC(=O)c2ccc(C#N)cc2)C1C (configuration not stated)	102.0	104.0	.	-3.7
CSCCSc1nnc(-c2cccc(S(=O)(=O)N3CCCCC3)c2)o1	104.0	103.0	7.7	-11.2
CCNC(=S)N(CCc1c(C)[nH]c2ccccc12)Cc1ccccn1	102.0	104.0	-37.1	3.0
CCn1c2c(n[n+]1[O-])C(=O)c1ccccc1C2=O	97.0	92.0	.	3.1
CCCCNC(=S)Nc1ccc2nc3n(c(=O)c2c1)CCCCC3	99.0	101.0	9.3	19.6

Three entries out of the list, sorted by count of non-hydrogen atoms, lowest first.
SMILES	PV pol inh	PV pol inh intensity	Mtb MenB inh	MbtI inh
COC(=O)CCNc1ccc(OC)cc1	100.0	103.0	-19.5	-7.3
CCCCNC(=S)Nc1ccc2nc3n(c(=O)c2c1)CCCCC3	99.0	101.0	9.3	19.6
CCOC(=O)Cn1nnnc1C(C(C)C)N(Cc1ccc(F)cc1)Cc1cc2cc3c(cc2[nH]c1=O)OCO3 (configuration not stated)	99.0	104.0	34.1	88.4

Other entries
SMILES	PV pol inh	PV pol inh intensity	Mtb MenB inh	MbtI inh
CCc1cc(Cl)c(OC)c(C(=O)NCC2CCCN2CC)c1O (configuration not stated)	101.0	98.0	-6.5	-86.2
CCOC(=O)c1sc2nc(CN3CCCCC3)nc(NC3CC3)c2c1C	97.0	110.0	-9.5	-4.5
COc1cc(S(=O)(=O)N(Cc2cccnc2)Cc2ccco2)ccc1-n1cnnn1	100.0	103.0	-29.9	-3.3
Brc1cnc(N2CCOCC2)nc1	100.0	100.0	-13.0	21.4
Cc1ccnc(SCC(N)=O)c1C#N	102.0	106.0	-18.9	22.3
O=C1CCC(=O)N1NC(=O)C12CC3CC(CC(C3)C1)C2	104.0	107.0	-2.9	-5.2
CC(C)(C)OC(=O)N=Nc1c(O)n(Cc2ccccc2)c2ccccc12	104.0	102.0	-21.9	-0.1
Nc1ncc(N=Nc2ccc(SC(F)F)cc2)s1	104.0	104.0	-26.3	43.1
Cc1cc(C(=O)O/N=C(\N)CSc2ncccc2C(F)(F)F)no1	102.0	106.0	-5.9	2.5
CCn1c2ccccc2c2cc(NC(=O)C(C)C)ccc21	102.0	106.0	-18.8	-15.8
CC1CCCCC1NC(=O)CSc1ccc(S(=O)(=O)N2CCCC2)cn1 (configuration not stated)	102.0	109.0	-2.6	-3.4
CN(C(=O)COC(=O)c1cn(C)c2ccccc12)C1CCCCC1	102.0	104.0	-0.8	0.0
COc1cc(C#N)ccc1OCC(=O)NC1CCCCC1C (configuration not stated)	103.0	104.0	-3.2	-43.8
O=S(=O)(NCc1nc(-c2ccccc2)no1)c1ccc(Cl)cc1	102.0	103.0	-3.9	-22.3
NC1=NC(Cc2ccccc2)CC(=O)N1 (configuration not stated)	102.0	107.0	-11.6	-9.6
CC1C/C(=N/N=c2\sc3ccccc3n2C)CC(C)(C)C1 (configuration not stated)	101.0	104.0	-6.3	-11.3
CCOC(=O)c1ccc(N2CN(CC)CNC2=S)cc1	103.0	100.0	-6.4	-0.6
CCc1ccccc1N1C(=O)CC(N2CCc3ccccc32)C1=O (configuration not stated)	101.0	99.0	26.0	3.2
CCN1C(=O)c2ccc(C(=O)Nc3c(C)cc(C)cc3C)cc2C1=O	99.0	100.0	-54.2	-4.3
CN(C)S(=O)(=O)c1ccc(=O)n(CC(=O)NCc2ccc(-c3ccc(Cl)cc3)o2)c1	104.0	106.0	-16.9	69.0
CN(C)S(=O)(=O)c1ccc(N2CCOCC2)c(C(=O)NCCC2=CCCCC2)c1	106.0	108.0	4.6	-3.2
C=CCNC(=S)N1CCC(C(=O)c2ccc(C)cc2)CC1	101.0	104.0	-16.2	1.6
COc1cc(N)ccc1NC(=O)c1ccco1	100.0	106.0	-18.9	.
CN(C)S(=O)(=O)c1cccc(CSc2ncccn2)c1	98.0	101.0	-7.0	13.7
O=C(NC1CCCC1)C(c1cccnc1)N(CCc1ccccc1)C(=O)c1ccco1 (configuration not stated)	100.0	102.0	20.3	-3.1
C=CCn1c(=O)c2c(nc3n2CC(C)CN3Cc2ccccc2)n(C)c1=O (configuration not stated)	101.0	105.0	8.6	-0.6
CCC(C)N=C1NC(=O)C(CC(=O)NCc2ccccc2)S1 (configuration not stated)	104.0	108.0	-15.8	-23.0
O=C(NCc1ccccc1)C1Cc2ccccc2CN1S(=O)(=O)c1ccc(F)cc1 (configuration not stated)	103.0	98.0	-7.6	-5.2
O=C(OCC(=O)N1CCc2ccccc21)c1cccc(S(=O)(=O)N2CCCCC2)c1	106.0	111.0	-21.8	12.6
Cc1csc(NC(=O)C(CC(C)C)NS(=O)(=O)c2ccc3nc(C)sc3c2)n1 (configuration not stated)	99.0	101.0	-4.4	-5.3
Cc1ccc(S(=O)(=O)c2nc(S(C)(=O)=O)sc2N2CCCCC2C)cc1 (configuration not stated)	98.0	100.0	-25.9	10.4
CC(=O)N(c1ccccc1)c1nc(/C=C(\C#N)C(=O)Nc2nccs2)cs1	103.0	98.0	-15.0	2.5
CCN(CC)S(=O)(=O)c1ccc(NC(=O)CSc2nnc(C)s2)cc1	104.0	107.0	-17.8	-6.0
C=C(c1ccc(OC)cc1)c1ccc(OC)cc1	102.0	103.0	-33.7	-20.0
COC(=O)C1CCCN1S(=O)(=O)c1ccccc1 (configuration not stated)	103.0	107.0	-10.3	.
Cc1ccc(-n2c(SCC(=O)C(C)(C)C)nnc2-c2ccncc2)cc1	105.0	103.0	-15.0	.
CC1=C(C(=O)N(C)Cc2ccccc2)C2(CCC(C)CC2)OC1=O (configuration not stated)	103.0	103.0	-43.1	6.7
O=C(c1ccccc1)N1CCN(C(=S)NCc2ccc3c(c2)OCO3)CC1	99.0	102.0	-13.3	61.9
CCOc1cc(/C=C2\SCOC2=O)ccc1O	141.0	203.0	-35.6	.
O=S(=O)(Cc1ccccc1)N1CCN(c2ccccc2Cl)CC1	101.0	103.0	-21.7	-13.8
Cc1ccc(N(CN2CCCC2=O)C(=O)c2ccccc2)cc1	100.0	107.0	-10.7	0.6
Cc1cccc2sc(N(CCN(C)C)C(=O)C3COc4ccccc4O3)nc12 (configuration not stated)	101.0	103.0	-2.6	10.4
CC1CCCC(NC(=O)CCCn2c(=O)[nH]c3cc(Cl)ccc3c2=O)C1C (configuration not stated)	103.0	101.0	-14.8	-2.1
O=C(CC(c1ccccc1)n1cccc1)N1CCc2ccccc21 (configuration not stated)	102.0	103.0	-18.2	-9.2
Cc1cccc(CN2CCc3c([nH]c4ccccc34)C2)c1	99.0	102.0	-10.9	36.7
O=C(Nc1nccs1)c1cc2ccccc2oc1=O	101.0	103.0	-9.6	-28.2
CC(Nc1ncnc2ccccc12)C(=O)O (configuration not stated)	100.0	97.0	2.6	.
Cn1c(=O)oc2cc(S(=O)(=O)N3CCC(C(=O)NCCc4ccccc4)CC3)ccc21	101.0	104.0	-23.9	-1.9
CC(C)NC(=O)c1ccc2c(c1)N(Cc1ccccc1)C(=O)CS2	99.0	98.0	-3.7	0.2
CC(C[N+](C)(C)C)OC(N)=O (configuration not stated)	99.0&99.0	103.0&100.0	-1.2&11.0	-3.1&-26.7
CCCN(Cc1cccs1)C(=O)NCc1ccccc1	102.0	102.0	-20.2	-8.5
Cc1c(Cl)cccc1Nc1nc(N)nc(CSC(=S)N(C)C2CCCCC2)n1	100.0	103.0	-11.0	26.2
Cc1ccccc1OCC(=O)OCC(=O)NC1CC1	100.0	105.0	.	-8.0
CCN1CCCC1CNC(=O)c1[nH]c2cc(OC)ccc2c1Sc1ccc(Cl)cc1 (configuration not stated)	103.0	109.0	3.0	3.3
O=C(Cc1ccc(Cl)cc1)Nc1cccc(-c2nc3ccccc3o2)c1	101.0	97.0	-19.4	11.5
Cc1cnn(CCCNC(=S)Nc2ccc(S(N)(=O)=O)cc2)c1	101.0	100.0	-0.4	13.8
N/C(=N\OC(=O)c1cccs1)c1ccccc1	103.0	104.0	1.9	0.1
CN(C)S(=O)(=O)c1ccc(=O)n(CC(=O)NCC2COc3ccccc3O2)c1 (configuration not stated)	104.0	108.0	-4.2	8.8
COc1cccc(/C(O)=C/c2nc3ccc(C(=O)N4CCN(C5CCCCC5)CC4)cc3[nH]c2=O)c1	105.0	113.0	-15.2	-7.1
CN(C)C(=S)SCC(=O)Nc1ccc(Cl)c(C(F)(F)F)c1	105.0	104.0	.	3.7

The list continues.
SMILES	PV pol inh	PV pol inh intensity	Mtb MenB inh	MbtI inh
O=C(CN1C(=O)NC(Cc2c[nH]c3ccccc23)C1=O)c1ccc2c(c1)OCCO2 (configuration not stated)	104.0	97.0	-29.2	-3.2
CCN1C(=O)/C(=N/n2cnnc2)c2ccccc21	100.0	102.0	.	-8.4
O=C(c1cc2c(Cl)ccc3c2n1CCO3)N1CCc2ccccc2C1	100.0	102.0	-32.1	143.2
Oc1cccc(C(O)CNc2c3c(nc4cc(-c5cccc(F)c5)nn24)CCC3)c1 (configuration not stated)	102.0	101.0	1.5	4.0
CSc1nc2ccccc2n1CC(=O)Nc1ccccc1	102.0	110.0	2.6	.
O=C1c2ccncc2C(=O)N1CO	101.0	107.0	-4.4	11.1
CC1(C)CC(=O)C2=C(C1)N(Cc1ccco1)C(=O)C2(NC(=O)c1cccs1)C(F)(F)F (configuration not stated)	102.0	102.0	0.4	1.1
O=P1(O)C=C(c2ccccc2)NC(c2ccccc2)=C1	98.0	95.0	-4.1	8.3

Six of the compounds above, with values under each structure:
Screens in order – PV pol inh	PV pol inh intensity	Mtb MenB inh	MbtI inh
CCN1C(=O)/C(=N/n2cnnc2)c2ccccc21
 : 100.0	102.0	.	-8.4
O=C(c1cc2c(Cl)ccc3c2n1CCO3)N1CCc2ccccc2C1
 : 100.0	102.0	-32.1	143.2
Oc1cccc(C(O)CNc2c3c(nc4cc(-c5cccc(F)c5)nn24)CCC3)c1 (configuration not stated)
 : 102.0	101.0	1.5	4.0
CSc1nc2ccccc2n1CC(=O)Nc1ccccc1
 : 102.0	110.0	2.6	.
O=C1c2ccncc2C(=O)N1CO
 : 101.0	107.0	-4.4	11.1
CC1(C)CC(=O)C2=C(C1)N(Cc1ccco1)C(=O)C2(NC(=O)c1cccs1)C(F)(F)F (configuration not stated)
 : 102.0	102.0	0.4	1.1
